From PubChem BioAssay
VDR inhibitor = blocks the human vitamin D receptor; VDR-SRC2-3 peptide fluorescence polarization, 2 h; AID 504847; actives 0.93% (n = 400,000); Potency, µM, for the others: max response, negative = inhibition, most hits filed as inhibitors; P11473; active means well fitted inhibition curve with a large enough effect; inconclusive means small, poorly fitted or top-dose-only effect, or another doubt; inactive means no such curve, though single readings can be large or run the other way; further: series mostly up to about 120 µM
Target sequence (P11473 whole entry, looked up): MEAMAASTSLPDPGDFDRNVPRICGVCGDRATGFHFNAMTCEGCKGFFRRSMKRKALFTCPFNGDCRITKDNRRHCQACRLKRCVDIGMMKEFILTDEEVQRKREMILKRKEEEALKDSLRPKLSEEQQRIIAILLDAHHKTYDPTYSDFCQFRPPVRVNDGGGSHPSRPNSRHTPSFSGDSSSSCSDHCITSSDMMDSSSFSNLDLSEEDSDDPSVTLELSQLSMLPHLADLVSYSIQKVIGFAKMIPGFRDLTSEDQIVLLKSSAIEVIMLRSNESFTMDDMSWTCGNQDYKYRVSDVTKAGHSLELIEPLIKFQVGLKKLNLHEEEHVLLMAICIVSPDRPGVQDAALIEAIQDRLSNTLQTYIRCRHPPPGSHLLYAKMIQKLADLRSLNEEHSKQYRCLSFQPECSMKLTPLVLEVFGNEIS
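Fluorescence polarization assay measuring small-molecule disruption of VDR binding to the coregulator peptide SRC2-3. Compounds were pin-transferred (23 nl) into the reagent mix and incubated 2 h at room temperature before reading.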
An asterisk follows results filed as active; ? = inconclusive; & = joins results of further samples; [ ] = another dose, or the depositor's remark. On the % scale 0 is the no-effect control and ±100 the full control effect; potency means the concentration at half of the fitted maximal effect. Some of the compounds tested; count on the stated rates, not on these rows.

SMILES	VDR inhibitor
CCCCSc1nnc(NC(=O)CCc2ccccc2)s1	8.7%
CCCCNc1cc(=O)n(C)c(=O)[nH]1	9.4%
CCN1CCN(c2nc(Nc3ccc(OC)cc3)nc(N)c2[N+](=O)[O-])CC1	12.8%
Cc1cccc(NC(=O)CC2C(=O)OCCN2Cc2ccccc2)c1 (centres undefined)	4.8%
Cc1[nH]n(C(N)=S)c(=O)c1N=Nc1cc(-c2ccc(Br)cc2)[nH]n1	-2.9%
Cc1ccc(C(=O)c2oc3ccccc3c2NC(=O)COc2ccc(C(C)(C)C)cc2)cc1	-8.4%
C#C[C@]1(O)CC[C@@H]2[C@H]3CCC4=CCCC[C@@H]4[C@@H]3CC[C@@]21C	-0.9%
COc1ccc(C(=O)OCCc2cc3ccccc3c(=O)o2)cc1	-1.8%
COc1ccccc1C(=O)NNC(=O)c1cccc([N+](=O)[O-])c1	-0.9%
O=C(CSc1nc(O)c(-c2ccccc2)c(=O)[nH]1)N1CCOCC1	-14.6%
Nc1ccc(S(=O)(=O)Nc2ccccn2)cc1	-1.4%&-11.5%
CCc1c(C(=O)O)[nH]c2ccc(Br)cc12	-8.4%
FC(F)Oc1ccc(NC(=S)NCC2COc3ccccc3O2)cc1 (centres undefined)	-1.2%
CCN1CCN(C(=O)c2ccc(COc3cccc(Cl)c3)o2)CC1	-10.6%
Cc1noc(C)c1COc1ccccc1C(=O)NCCc1ccc(F)cc1	-13.7%
Cc1ccc(CSC(Nc2ccc(F)cc2)=C(C#N)C#N)cc1	-13.4%
CC(C)C1CC(C(=O)Nc2ccccc2)C(=O)O1 (centres undefined)	-7.7%
COc1ccc(C)cc1NC(=O)Cn1c(=O)oc2cc(S(=O)(=O)NCc3ccccc3)ccc21	9.3%
CCC(=O)N1CCc2cc(Br)cc(S(=O)(=O)NCc3ccccc3OC)c21	-5.5%
NCCCCCCCCCCNCCCN	6.0%
COc1ccc2c(c1)O[C@@H](c1cccc(C(F)(F)F)c1)[C@H](OC(=O)Nc1ccc(OC(F)F)cc1)C2=O	-6.2%&-4.7%
O=C(CCOc1ccccc1)Nc1ccc(Cl)c(S(=O)(=O)N2CCOCC2)c1	-2.6%
Cn1cc(S(=O)(=O)N2CCN(c3cccc(C(F)(F)F)c3)CC2)c(=O)n(C)c1=O	-3.6%
CCN(CC1CCCO1)C(=O)CCc1nnc(CCc2ccccc2OC)o1 (centres undefined)	-3.8%

The closing 3 compounds of the part before open the next one:
SMILES	VDR inhibitor
O=C(CCOc1ccccc1)Nc1ccc(Cl)c(S(=O)(=O)N2CCOCC2)c1	-2.6%
Cn1cc(S(=O)(=O)N2CCN(c3cccc(C(F)(F)F)c3)CC2)c(=O)n(C)c1=O	-3.6%
CCN(CC1CCCO1)C(=O)CCc1nnc(CCc2ccccc2OC)o1 (centres undefined)	-3.8%
Nc1ccc(C(=O)NCCCCCCNC(=O)c2ccc(N)cc2)cc1	-20.5%
CCCCCc1c(O)nc(SCCN(CC)CC)[nH]c1=O	-7.8%
Cc1ccccc1NC(=O)CON=C(N)c1ccccc1	-12.3%
CCOC(=O)c1cc(-c2ccccc2)n(CC2CC(c3ccc(OC)cc3)=NO2)n1 (centres undefined)	-20.2%
CCOc1ccc(S(=O)(=O)NCCC2=CCCCC2)c2ccccc12	-0.6%
CCn1c(CCc2ccccc2)nnc1SCC(N)=O	9.9%
Cc1cc(C)c(C)c(S(=O)(=O)N2CCN(C(=O)c3cc(S(=O)(=O)N4CCOCC4)ccc3F)CC2)c1C	-0.8%
CC(C)C(NC(=O)c1ccccc1F)C(=O)NCc1ccc(S(=O)(=O)N2CCOCC2)cc1 (centres undefined)	-15.9%
CCCn1nc(C(=O)Nc2nc(-c3ccccn3)cs2)c2ccccc2c1=O	-16.9%
Cc1ccc(NC(=O)CN2C(=O)S/C(=C/c3ccncc3)C2=O)cc1	-13.0%
CN(C)c1ncc2nc(-c3ccccc3)c(=O)n(C[C@H]3CCCO3)c2n1	?
CCN1CCN(CCC(=O)Nc2ccc(Br)cc2)CC1	31.5%[activator]

Shown with values ahead of the structure: entries from further up
VDR inhibitor | smiles
-16.9% | CCCn1nc(C(=O)Nc2nc(-c3ccccn3)cs2)c2ccccc2c1=O
-13.0% | Cc1ccc(NC(=O)CN2C(=O)S/C(=C/c3ccncc3)C2=O)cc1
? | CN(C)c1ncc2nc(-c3ccccc3)c(=O)n(C[C@H]3CCCO3)c2n1

(cont.)
SMILES	VDR inhibitor
CN(C(=O)CS(=O)(=O)c1cn(CC(=O)N2CCCCC2)c2ccccc12)c1ccccc1	2.9%
Cc1ccc(N2CC(C(=O)N/N=C/c3c(F)cccc3Cl)CC2=O)cc1 (centres undefined)	7.1%
CSCCC(NC(=O)c1ccccc1)C(=O)NCc1ccco1 (centres undefined)	9.0%
O=C(CSc1nn(-c2ccc(F)cc2)c(=S)s1)NC1CCS(=O)(=O)C1 (centres undefined)	-14.8%
COc1ccccc1C(=O)Nc1cccc(C(=O)OCc2cc(=O)n3ccsc3n2)c1	8.4%
CCCn1c(N)c(NCCN2CCOCC2)c(=O)n(CC(=O)NCc2ccccc2)c1=O	-17.3%
CCN(CC)C(=O)CSc1nc2cc3c(cc2c(=O)n1CCCC(=O)NCc1ccc2c(c1)OCO2)OCO3	4.9%
CCCc1[nH]nc2c1C(c1ccccc1OC)C(C#N)=C(N)O2 (centres undefined)	-13.7%
Cc1cccc(OC(=O)c2snnc2C)c1C	-4.6%
COc1ccc(NS(=O)(=O)c2cc(NC(=O)c3ccc(C)s3)ccc2N2CCOCC2)cc1	11.0%
OCC1O[C@H]([S-])[C@H](O)[C@@H](O)[C@@H]1O.[Au+] (some centres undefined)	2.82µM*
c1ccn2c(c1)nc1c2nc2ccccn21	16.8%

Arranged by value in VDR inhibitor (largest number first): 4 of the compounds above.
SMILES	VDR inhibitor
COc1ccc(NS(=O)(=O)c2cc(NC(=O)c3ccc(C)s3)ccc2N2CCOCC2)cc1	11.0%
CSCCC(NC(=O)c1ccccc1)C(=O)NCc1ccco1 (centres undefined)	9.0%
COc1ccccc1C(=O)Nc1cccc(C(=O)OCc2cc(=O)n3ccsc3n2)c1	8.4%
Cc1ccc(N2CC(C(=O)N/N=C/c3c(F)cccc3Cl)CC2=O)cc1 (centres undefined)	7.1%

More compounds follow:
SMILES	VDR inhibitor
O=C(C1CCC(Cn2c(=O)c3sccc3n(Cc3ccccc3)c2=O)CC1)N1CCOCC1 (centres undefined)	8.7%
CC1(C2CC2)NC(=O)N(CC(=O)Nc2ccc(Cl)c([N+](=O)[O-])c2)C1=O (centres undefined)	-5.3%
O=C1OCC2=C1C(c1ccccc1)CC(=O)N2c1cccc(F)c1 (centres undefined)	-18.8%
O=C(Nc1cccnc1)c1ccc(-c2ccccc2)cc1	-2.7%
COCCNC(=O)C1CCC(CNS(=O)(=O)c2c(C)cc(C)cc2C)CC1 (centres undefined)	-17.0%
Cc1nc2nc[nH]n2c(=O)c1NS(C)(=O)=O	-19.5%
Cc1cccc(C(=O)N2N=C(c3ccc(NS(C)(=O)=O)cc3)CC2c2cccs2)c1 (centres undefined)	2.3%
COc1ccc(F)c(-c2nc(CN3CCC(c4ccccc4)CC3)c(C)o2)c1	-25.8%
CC(C)n1c(NCc2cccs2)nc2ccccc21	-8.7%
COc1ccc(/C=N/NC(=O)c2ccc(O)cc2)cc1CN1CCCc2ccccc21	-1.7%
CCC(=O)N1CCN(c2ccc(Cl)cc2NC(=O)c2cccc([N+](=O)[O-])c2)CC1	10.3%
CCOc1ccc(S(=O)(=O)N2CCN(C(=O)c3ccc(C)c(S(=O)(=O)N4CCOCC4)c3)CC2)cc1	-11.6%
COc1ccc(N2CCN(c3nc4ccccn4c(=O)c3C=O)CC2)cc1	14.7%
COc1ccccc1NC(=O)COc1cccnc1[N+](=O)[O-]	-3.5%
COc1ccccc1C=NNc1nc(C)cc(=O)[nH]1	-5.8%
COc1ccc(N2CCN(C(=O)c3ccc4nc(N5CCCCC5)sc4c3)CC2)cc1	14.3%
O=C(NC12CC3CC(CC(C3)C1)C2)c1cncc(Br)c1	-22.1%
COc1ccc(Br)c(C(=O)Nn2c(C)nc3ccccc3c2=O)c1	5.0%
Cc1cc(C(=O)N2CCCC(N3CCN(c4cccc(Cl)c4)CC3)C2)nc(C)n1 (centres undefined)	-10.2%
O=C1c2ccccc2C(Nc2ccccc2)N1c1cccnc1 (centres undefined)	13.0%
O=C(CSc1nnc2scc(-c3ccccc3)n12)NCc1ccco1	-9.6%
Cc1ccc(Oc2nc(-c3ccccc3)ncc2S(C)(=O)=O)cc1	?
Cc1ccc(Cn2nnc(C(=O)Nc3cccc(C)c3C)c2N)cc1	-3.5%
COc1cc(C(=O)NCCOc2cc(C)cc(C)c2)cc(OC)c1OC	6.5%

Random excerpt: 2 entries already listed, in no set order.
SMILES	VDR inhibitor
COc1ccccc1NC(=O)COc1cccnc1[N+](=O)[O-]	-3.5%
O=C1c2ccccc2C(Nc2ccccc2)N1c1cccnc1 (centres undefined)	13.0%

Next section.
SMILES	VDR inhibitor
CC(C)=N/N=C(\N)SCc1ccccc1	-23.6%
CCC(C)N(C(=O)COC(=O)COc1c(C)cc(C)cc1C)C1CCS(=O)(=O)C1 (centres undefined)	2.4%
Nc1nnc(CC(c2ccccc2)c2ccccc2)s1	-3.2%
C/C(=N/NC(=O)c1nnn(-c2nonc2N)c1COc1ccccc1)c1ccccc1Cl	8.1%
CC1CCN(C(=O)/C(=C/c2ccccc2Cl)c2ccccc2)CC1	-1.4%
N#Cc1ccccc1Cn1cc(C#N)c2ccccc21	-23.7%
O=C(c1ccc(F)cc1F)N1CCCc2ccccc21	-16.2%
O=C(Cn1c(=O)n(Cc2ccc(C(=O)NCc3ccc4c(c3)OCO4)cc2)c(=O)c2ccccc21)Nc1cccc(Cl)c1	4.3%
COc1ccc(N(Cc2cccs2)C(=O)c2ccc(C(C)(C)C)cc2)cc1	4.1%
CCCn1cc(CN2CCC(Cc3cccc(F)c3)(C(=O)OCC)CC2)c(C)n1	-5.6%
O=C(NCCC1=CCCCC1)C1CCCN(S(=O)(=O)c2ccccc2)C1 (centres undefined)	-10.4%
CCCCCC(=O)NNC1CC(=O)N(c2cccc(OCC)c2)C1=O (centres undefined)	-1.8%
Cc1nnc(NC(=O)c2cc(-c3ccncc3)nc3c(C)cccc23)s1	-11.4%
CC(C)C(NC(=O)CC12CC3CC(CC(C3)C1)C2)C(=O)O (centres undefined)	-13.5%
CC1(C)C2CC[C@]3(C)C(CC=C4[C@@H]5C[C@@](C)(CO)[C@@H](O)C[C@]5(C(=O)O)CC[C@]43C)[C@@]2(C)CC[C@@H]1O (some centres undefined)	?
CC(=O)c1ccc(C(=O)N2CCCC(Nc3ccc(C(C)C)cc3)C2)s1 (centres undefined)	-16.2%
CCCCCCCCNC(=O)CC(NS(=O)(=O)c1ccc(NC(C)=O)cc1)C(C)C (centres undefined)	16.9%
COC(=O)[C@H](CC(C)C)NC(=O)Nc1cccc(Br)c1	-14.3%
CC1CCN(S(=O)(=O)c2ccc(NC(=O)c3cccs3)cc2)CC1	2.4%
Cn1c(CN2CCOCC2)nnc1SCc1cccc(F)c1	-1.9%
CCCN1CCN(c2ncnc3sc(C(=O)Nc4ccc(OC(F)(F)F)cc4)c(C)c23)CC1	21.0%
COc1ccc2c(c1)N(C(=O)CN1C(=O)C3CCCCC3C1=O)C(C)(C)C=C2C (centres undefined)	-2.8%
CCOC(=O)N1CCC(=NNc2ccnc3cc(Cl)ccc23)CC1	-10.5%
Cc1cc(C)cc(NC(=O)C2CCN(S(=O)(=O)c3cccc4nonc34)CC2)c1	16.4%
Nn1c(Cc2ccccc2)n[nH]c1=S	22.5%
CC(=O)COC(=O)C1=NN(c2ccccc2)C(=O)CC1	9.4%
CNC(=O)c1c(NC(=O)c2ccc(S(=O)(=O)N3CCCCC3)cc2)sc2c1CCN(C(C)C)C2	-9.8%
COc1ccc(NC(=O)Nc2ccc3c(c2)C(=O)N([C@H](C)CO)C[C@H](C)[C@@H](CN(C)S(=O)(=O)c2ccc(F)cc2)O3)cc1	-7.6%
CCOC(=O)c1c(CCl)nc2ccccc2c1-c1ccccc1	-15.5%
COc1ccc(-c2nnc(SC(C)C(=O)NCc3ccc4c(c3)OCO4)n2Cc2ccco2)cc1 (centres undefined)	-0.2%
CCCCOC(=O)C1=C(C)Nc2nnnn2C1c1ccc(OC)c(OC)c1OC (centres undefined)	6.8%
CCCn1c(=N)n(CC(O)c2ccc(C)cc2)c2ccccc21 (centres undefined)	1.2%
C(=N\Nc1nc2ccccc2[nH]1)/c1c[nH]c2ccccc12	2.1%
COc1cc(/C=N/NC(=O)c2ccncc2)cc(OC)c1OC	-22.5%
O=C(Nc1ncccc1O)c1c(O)c2ccccc2[nH]c1=O	-3.6%
CCN(C(=S)Nc1ccccc1F)C1CCCCC1	5.0%
CC(=O)c1sc(C(C)(C)C)cc1NC(=O)/C=C/C(=O)O	-26.7%
CCCc1cc(=O)oc2cc(OCC(=O)NC(Cc3c[nH]c4ccc(O)cc34)C(=O)O)c(Cl)cc12 (centres undefined)	-9.9%
O=C(Nc1cccc(C(=O)Nc2ccc(Br)cc2)c1)c1ccccc1	-1.8%
CCOc1ccc(Oc2cc(NC(=O)c3ccco3)cc([N+](=O)[O-])c2)cc1	-6.6%
O=C(c1ccccc1Cl)N1N=C(c2cccs2)CC1c1cccc(O)c1 (centres undefined)	-16.0%
COc1ccc(OC)c(NC(=O)c2c(C)oc3ncnc(N4CCOCC4)c23)c1	12.3%
CC(C)NC(=O)Cn1cc(C(=O)C2CC2)c2ccccc21	-25.0%
O=C(Nc1ccc(Cn2cccn2)cc1)c1ccc(COc2ccccc2Br)cc1	3.3%
O=C(Cn1cnc2ccccc2c1=O)NCCC(=O)N1CCN(Cc2ccccc2)CC1	4.3%
Cc1cc(C)cc(Nc2cc(C(=O)NCCCN(Cc3ccccc3)C(C)C)c3ccccc3n2)c1	-5.6%
CC(C)CC(NC(=O)OC(C)(C)C)C(=O)NCc1ccccc1 (centres undefined)	15.8%
Cn1cccc1/C=N\NC(=O)C1COc2ccccc2O1 (centres undefined)	-5.7%
CC1CCCCC1NC(=O)CN1C(=O)c2ccccc2S1(=O)=O (centres undefined)	7.5%
Nn1c(SCC(=O)NC2CCCC2)nnc1-c1ccccc1F	3.7%
